D2 potentiator – Beta-Arrestin HTS for Positive Allosteric Modulators of the Human D2 Dopamine Receptor: Potentiators; potentiation, % (no concentration beside the values); 360,000 tested, 0.23% active; DiscoveRx D2 beta-arrestin cells, luminescence, 90 min; 100% = 57 uM dopamine signal; AID 624464, 2012; active = potentiation of 50% or more; inconclusive = 30% to 50%; inactive = 30% or less;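 further: compound concentration not given in the record; tested on top of an EC20 dose of dopamine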
Target sequence (P14416 whole entry, looked up): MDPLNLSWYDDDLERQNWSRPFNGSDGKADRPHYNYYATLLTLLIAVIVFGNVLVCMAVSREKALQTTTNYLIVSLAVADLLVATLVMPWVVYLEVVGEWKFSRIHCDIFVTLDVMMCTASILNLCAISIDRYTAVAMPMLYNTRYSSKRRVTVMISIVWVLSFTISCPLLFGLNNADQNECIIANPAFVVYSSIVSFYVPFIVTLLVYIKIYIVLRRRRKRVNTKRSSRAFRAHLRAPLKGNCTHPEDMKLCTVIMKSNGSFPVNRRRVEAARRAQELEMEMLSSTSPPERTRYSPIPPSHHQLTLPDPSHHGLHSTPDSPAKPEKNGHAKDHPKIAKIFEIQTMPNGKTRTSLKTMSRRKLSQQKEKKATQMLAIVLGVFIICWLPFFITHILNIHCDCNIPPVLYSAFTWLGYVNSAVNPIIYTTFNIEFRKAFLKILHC
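D2 cells co-treated with compound plus 50 nM dopamine (EC20) for 90 min at 37 deg C to detect potentiation. Beta-arrestin recruitment was read as enzyme-fragment luminescence after 1 h at ambient temperature. Full response was set by 57 uM dopamine.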
Six1-Eya2 blk – qHTS Assay for Inhibitors of the Six1/Eya2 Interaction. Homeobox protein SIX1 (Homo sapiens) + Protein phosphatase EYA2 (Homo sapiens), …. AlphaScreen GST-Six1/His-Eya2 binding, biochemical; hits give low values; control for the full effect not named in the record. activity change, % (concentration not given with the values). 360,000 tested, 0.56% active; in the data active = activity change below about -65%; inconclusive = about -30% to -65%; inactive = above about -30%; further: on the % scale 0 is the no-effect control and ±100 the full control effect
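Homogeneous AlphaScreen proximity assay pairing GST-Six1 with His-tagged Eya2 (added as 5X mix: 250 nM and 500 nM) in 50 mM Tris pH 8.0, 300 mM NaCl, 1 mM TCEP. Glutathione donor and nickel acceptor beads; 1 h, 37 °C, dark.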
TRPML1 blocker – qHTS for Inhibitors of the Human Mucolipin Transient Receptor Potential 1 (TRPML1); activity change, negative = inhibition, % (test concentration not listed); 390,000 tested, 0.02% active; TRPML1-inducible cells, Ca2+ dye fluorescence, FDSS; hits give low values; inhibition of EC80 agonist-evoked calcium signal; Mucolipin-1 (Homo sapiens), Q9GZU1; in the data active means activity change below about -50%; inconclusive means about -30% to -50%; inactive means above about -30%;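 further: stimulus is agonist 54-4 at its EC80 concentration; on the % scale 0 is the no-effect control and ±100 the full control effect; compound concentration not given in the record; the text of the record puts the active cut at -80%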
Target sequence (Q9GZU1 whole entry, looked up): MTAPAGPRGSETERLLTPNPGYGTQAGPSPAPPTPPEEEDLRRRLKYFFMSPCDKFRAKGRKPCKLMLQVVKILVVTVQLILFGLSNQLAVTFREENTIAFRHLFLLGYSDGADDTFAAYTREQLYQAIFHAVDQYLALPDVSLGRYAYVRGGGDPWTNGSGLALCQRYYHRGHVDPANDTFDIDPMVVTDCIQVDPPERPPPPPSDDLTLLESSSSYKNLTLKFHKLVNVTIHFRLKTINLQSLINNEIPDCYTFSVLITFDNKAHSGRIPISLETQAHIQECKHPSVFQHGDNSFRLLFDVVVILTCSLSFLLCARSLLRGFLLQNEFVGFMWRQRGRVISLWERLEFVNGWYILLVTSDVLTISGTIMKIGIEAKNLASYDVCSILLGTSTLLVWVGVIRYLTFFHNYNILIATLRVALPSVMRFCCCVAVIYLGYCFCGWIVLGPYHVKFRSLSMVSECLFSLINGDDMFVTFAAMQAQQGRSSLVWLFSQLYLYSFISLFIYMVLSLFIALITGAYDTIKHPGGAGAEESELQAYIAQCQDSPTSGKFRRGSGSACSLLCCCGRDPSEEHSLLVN
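TRPML1-DL cells, Tet-induced overnight (~16 h, 37 °C) at 1,500 cells/well, were loaded with Ca8 no-wash dye plus quencher for 45-90 min at room temperature. Compounds were pinned during FDSS kinetic reading; agonist 54-4 at EC80 (4 uM final) then added.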
TRPML1 ag – qHTS for Agonists of the Human Mucolipin Transient Receptor Potential 1 (TRPML1). 410,000 tested, 0.12% active. TRPML1-expressing cells, Ca2+ dye fluorescence, FDSS; host cell line not named in the record; reference of the full effect not given here. activation, % (concentration not given with the values); in the data active = activation above about 50%; inconclusive = about 30% to 50%; inactive = below about 30%; further: 0% is about no effect; the text of the record puts the active cut at 80%
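Cells: TRPML1-DL, 1X Tet inducer, ~16 h at 37 degrees C/5% CO2. Dye: ABD Ca8 no-wash + quencher, 45-90 min RT. Read: 10 s baseline, compound add, 110 s agonist phase; 54-4 EC80 (4uM final), 110 s antagonist phase.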
TRPV1 PAM – HTS Assay for Compounds that Act as Potentiators of the Vanilloid Receptor 1; TRPV1-expressing cells, Fluo-8 calcium influx, capsaicin EC20 potentiation; host cell line not named in the record; control for the full effect not named in the record; potentiation, % at 8.33 µM; Transient receptor potential cation channel subfamily V member 1 (Homo sapiens), Q8NER1; 320,000 tested, 0.02% active; active means potentiation above 80%; inconclusive means 30% to 80%; inactive means below 30%; further: 0% is about no effect
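Cells expressing TRPV1 were dye-loaded with Fluo-8 and read kinetically: 10 s baseline, 3 min after compound (agonist portion), then 2 min after EC20 capsaicin (allosteric enhancer portion). Calcium-bound dye fluorescence at 480/520 nm.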
CtBP-E1A blk – qHTS Assay for Inhibitors of the CtBP/E1A Interaction | AlphaScreen GST-E1A/His-CtBP binding, 1536-well; hits give low values; control for the full effect not named in the record | activity change, % (test concentration not listed) | 340,000 tested, 0.49% active | AID 651724, 2012; in the data active means activity change below about -65%; inconclusive means about -30% to -65%; inactive means above about -30%; further: on the % scale 0 is the no-effect control and ±100 the full control effect; compound concentration not given in the record
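Homogeneous bead-based format: GST-tagged E1A captured on glutathione donor beads, His-tagged CtBP on nickel acceptor beads; compounds precede bead addition by 2 h at 37 °C.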
Starred values were filed as active, the others as inactive; ? = inconclusive; nt = not tested or not shown; & = joins results of further samples.

SMILES | D2 potentiator | Six1-Eya2 blk | TRPML1 blocker | TRPML1 ag | TRPV1 PAM | CtBP-E1A blk
CCOc1ccccc1C1C2CCCCC2(O)CCN1C(=O)c1cccs1 (stereo not given) | 19 | 4 | 12 | 3.3 | 6 | 2
Cc1cc(Nc2c(C#N)c(N)nn2C)ccc1F | -6 | 15 | 1 | 0.1 | -4 | -1
CCCCNC(=S)N(C)/N=C/c1ccc(F)cc1 | -21 | 9 | -5 | 2.0 | 8 | 24
CC(=O)Nc1ccc(S(=O)(=O)NNC2=NS(=O)(=O)c3ccccc32)cc1 | 4 | -1 | -8 | 0.0 | 7 | -1
Cc1cc(C(=O)N/N=C/c2ccncc2)c(C)o1 | 0 | -6 | 59 | 0.4 | -12 | 9
COc1ccc(NC(=O)COC(=O)CNS(=O)(=O)c2ccc(F)c(F)c2F)cc1OC | 1 | 6 | -9 | -0.4 | -16 | 3
CCOc1ccc(Cl)cc1-c1cc(C(=O)NCCOC)[nH]n1 | -6 | -4 | nt | -1.2 | nt | -4
CCCCNC(=O)C(C#N)c1nc2ccccc2nc1N1CCN(Cc2ccc3c(c2)OCO3)CC1 (stereo not given) | -23 | -12 | -2 | 5.2 | nt | -8
CCOC(=O)c1ccc(NC(=O)Nc2nc3ccccc3s2)cc1 | -10 | 21 | -4 | -0.3 | nt | 0
COCc1cc(CN2CCCC(CNC(=O)c3ccc(F)cc3)C2)ccc1OC (stereo not given) | -18 | 14 | 15 | 1.8 | -2 | -1
CCc1ccccc1NC(=O)CCNS(=O)(=O)c1cc(Br)cnc1N | -2 | 2 | 3 | 0.6 | 8 | 6
CC(C)C(=O)Nc1nnc(SCC(=O)NCc2ccco2)s1 | -5 | 1 | -5 | -0.2 | 27 | 2
CC(=O)c1cc(OC(=O)c2ccncc2)ccc1OC(=O)c1ccncc1 | 3 | -8 | -21 | -0.7 | 12 | -8
O=C1NC[C@H](CCCCN2CCN(CC3CCCCC3)C(=O)C2=O)N(Cc2ccccc2)C1=O | nt | 2 | nt | -0.4 | nt | 4
Cc1noc(C)c1COC(=O)COc1ccc(-c2ccccc2)cc1 | 3 | 33 | 17 | 2.2 | nt | 33
C=CCn1c(C(C)NC(=O)c2ccc(C)cc2)n[nH]c1=S (stereo not given) | -29 | 1 | -9 | -0.4 | 6 | -11
CCCNC(=O)C1(C)CCN(C(=O)c2ccc(F)c(Cl)c2)C1 (stereo not given) | -5 | 2 | 9 | -0.2 | nt | 5
Cc1nnc(CN(C)C(=O)c2cc(COc3ccc(C)c(C)c3)on2)o1 | -5 | 3 | -6 | -1.1 | -13 | 2
O=c1c2cc(O)c(O)cc2oc2cc(O)c(C3OC(CO)C(O)C(O)C3O)c(O)c12 (stereo not given) | -20 | -23 | nt | nt | 1 | 23
CC(C)CC(=O)Nc1ccc(Oc2ccc3c(c2)C(=O)NC3=O)cc1 | 0 | 0 | 40 | -0.9 | 2 | nt

Reprinted from the part before: 2 entries, followed by the next part.
SMILES | D2 potentiator | Six1-Eya2 blk | TRPML1 blocker | TRPML1 ag | TRPV1 PAM | CtBP-E1A blk
O=c1c2cc(O)c(O)cc2oc2cc(O)c(C3OC(CO)C(O)C(O)C3O)c(O)c12 (stereo not given) | -20 | -23 | nt | nt | 1 | 23
CC(C)CC(=O)Nc1ccc(Oc2ccc3c(c2)C(=O)NC3=O)cc1 | 0 | 0 | 40 | -0.9 | 2 | nt
CCc1ccc(NC(=O)CCCn2nc(CC)n3c(cc4occc43)c2=O)cc1 | -11 | -3 | -1 | -0.5 | 18 | -7
O=C(O)C1CCN(S(=O)(=O)c2ccc3[nH]ccc3c2)CC1 | 0 | 1 | -4 | 0.8 | nt | 4
N#C/C(=C\c1ccc(OCc2ccccc2)cc1)C(=O)Nc1ccc(C(=O)O)cc1 | -3 | 14 | -5 | -0.8 | -2 | 7
CN(CC(=O)Nc1ccccc1Sc1ccccc1)C1CCCCC1 | -4 | 27 | ? | 60* | -11 | -20
COC(=O)CN(c1nc(C)cc(OC)n1)S(=O)(=O)c1ccc(C)cc1 | -9 | 5 | -2 | 0.4 | -15 | 9
Cc1ccccc1Oc1nnc(-c2cccs2)c2ccccc12 | -21 | 4 | 48 | 3.3 | 18 | -16
Cc1cc(CNC(=O)c2cccc(OC3CCN(S(=O)(=O)N(C)C)CC3)c2)on1 | 11 | 5 | -7 | -0.6 | 15 | 10
S=C(NC1CCCC1)N1CCN(c2ccc(Cl)cc2)CC1 | 0 | -1 | -9 | -0.4 | -13 | -11
Cc1ccc(-c2nn(CC(=O)NCc3ccccn3)c(=O)c3ccccc23)cc1S(=O)(=O)N(C)C | 4 | 2 | 3 | 2.1 | 15 | -18
CC(C)(C)NC(=O)Cc1ccc(Cl)c(Cl)c1 | -2 | 2 | -8 | -0.6 | -17 | 0
CCC(C)N(C(=O)CSc1nnc(NC(C)C)s1)C1CCS(=O)(=O)C1 (stereo not given) | -11 | 7 | -17 | 0.0 | 29 | -19
Cc1cccc(NC(=O)Cn2c(=O)n(CC3CCCO3)c(=O)c3ccccc32)c1 (stereo not given) | 0 | -5 | -4 | 0.7 | 7 | 3
C[N+]1(CC(O)COCC2COc3ccccc3O2)CCOCC1 (stereo not given) | -4 | 8 | -25 | -0.3 | 1 | -13
O=C(Cn1cccc1C(=O)c1ccccc1)NCc1cccc(Cl)c1 | -8 | -6 | 6 | 1.4 | -6 | nt
CCc1cccc(NC(=O)COC(=O)c2c(C)nn(-c3ccccc3)c2C)c1 | -5 | -2 | 11 | -1.1 | nt | 4
O=C(NCC(=O)N1CCOCC1)c1ccc(Br)o1 | -5 | -6 | -5 | -0.1 | -8 | -16
Cc1nc2c(OCCOc3ccc(F)cc3)cccn2c1N(C)C(=O)CCC1CCCC1 | -1 | 1 | nt | -0.6 | nt | -10
CC(C)(C)NC(=S)Nc1cccc(C(F)(F)F)c1 | -10 | 4 | 2 | -0.4 | ? | 15
CCCNS(=O)(=O)c1ccc(OCC(=O)Nc2ccc3c(c2)OCCO3)c(C)c1 | -13 | -2 | 51 | 0.4 | 5 | -29
Cc1ccc(C)c(Cn2c(C(=O)OC(C)C)cc3c2ccn3C)c1 | -13 | ? | 6 | -0.5 | 7 | -21

4 records drawn at random from the list so far:
SMILES | D2 potentiator | Six1-Eya2 blk | TRPML1 blocker | TRPML1 ag | TRPV1 PAM | CtBP-E1A blk
CC(C)(C)NC(=O)Cc1ccc(Cl)c(Cl)c1 | -2 | 2 | -8 | -0.6 | -17 | 0
C[N+]1(CC(O)COCC2COc3ccccc3O2)CCOCC1 (stereo not given) | -4 | 8 | -25 | -0.3 | 1 | -13
Cc1ccccc1Oc1nnc(-c2cccs2)c2ccccc12 | -21 | 4 | 48 | 3.3 | 18 | -16
Cc1cc(CNC(=O)c2cccc(OC3CCN(S(=O)(=O)N(C)C)CC3)c2)on1 | 11 | 5 | -7 | -0.6 | 15 | 10

(more compounds)
SMILES | D2 potentiator | Six1-Eya2 blk | TRPML1 blocker | TRPML1 ag | TRPV1 PAM | CtBP-E1A blk
CCc1nc2sc3c(c2c(=O)n1CCO)CCC3 | -1 | -1 | 6 | -0.1 | -16 | -4
CC(C)(C)OC(=O)C[C@H]1C/C=C\C[C@@H](CC(=O)N(CCO)Cc2ccccc2)C(=O)N[C@H](C(C)(C)C)COC1=O | -1 | 4 | -17 | -0.2 | nt | 8
C=CCn1c(-c2cccnc2)n[nH]c1=S | -18 | 4 | -4 | -0.7 | -4 | 0
CCc1ccc(/C=C(/C#N)C(N)=S)s1 | -3 | 17 | 6 | 0.2 | -15 | 0
COc1cccc(NC(=O)Cc2c(O)c3ccccc3[nH]c2=O)c1 | -5 | 2 | 59 | 0.0 | -11 | -2
COc1ccc(OCCCC(=O)NCCc2ccccc2)cc1 | -14 | 5 | 5 | 0.0 | -24 | 2
CCOc1ccc(CNC(=O)CCS(=O)(=O)c2ccc3c(c2)NC(=O)CO3)cc1OC | -7 | -1 | 2 | 0.3 | -8 | 2
O=C(N/N=C/c1cccnc1)c1ccc(Cn2cc([N+](=O)[O-])cn2)o1 | -4 | -14 | 10 | 0.4 | -2 | -10
Cc1ccc2c(COC(=O)C3CC(=O)N(c4ccc5c(c4)OCCO5)C3)cc(=O)oc2c1 (stereo not given) | 0 | -6 | -4 | -0.4 | nt | -4
O=C(COc1ccc(Cl)cc1)NCCCNC(=O)c1cccnc1 | -5 | 8 | -5 | -1.1 | 6 | 24
Cc1ccc(Cl)c(OCCCN(C)Cc2ccccc2)c1 | -24 | 9 | -7 | -0.4 | -7 | 9
Cc1ccc(S(=O)(=O)N2CCN=C2SCc2c(F)cccc2Cl)cc1 | -9 | 15 | 75 | 2.3 | -7 | 0
O=C(NC(=S)Nc1c(Cl)cc(Cl)cc1Cl)c1ccccc1 | -22 | -14 | -23 | 0.6 | nt | 7
NC(=O)C1CCN(S(=O)(=O)c2ccccc2[N+](=O)[O-])CC1 | 2 | 24 | nt | nt | ? | nt
Cc1noc(C)c1CCC(=O)N1CCCC(CO)(Cc2ccccc2)C1 (stereo not given) | -9 | 0 | 9 | 1.1 | -10 | -9
COCCCNc1nc2ccccc2nc1NS(=O)(=O)c1cccs1 | -11 | 2 | -5 | 0.4 | 4 | -3
CN(C)c1ccc(NC(=O)CCCc2ccccc2)cc1 | 27 | -18 | 0 | -1.3 | -22 | -12
C[C@@H]1CCCCO[C@H](CN(C)S(=O)(=O)c2cccs2)[C@@H](C)CN([C@H](C)CO)C(=O)c2cc(NC(=O)Nc3ccc4c(c3)OCO4)ccc2O1 | -7 | -15 | -7 | -0.2 | nt | 5
C#CCSc1nncn1C(=O)/C=C/c1ccccc1 | -5 | 5 | 4 | 0.5 | 11 | 6
Cc1nc(N)nc2c1CCCC2 | -14 | 4 | 38 | 0.4 | -3 | -5
CN1C(=O)CC(Nc2cccc3cccc(N)c23)C1=O (stereo not given) | 4 | -7 | -2 | -0.4 | 14 | 0
COCCN1C(=O)N[C@@H](c2cccc(C(F)(F)F)c2)[C@H](C(=O)OC)[C@H]1C | -9 | 1 | -24 | 0.6 | nt | -1
CC(=O)c1ccc(NC(=O)CSc2nc3ccccc3c(=O)n2CCCN2CCOCC2)cc1 | -5 | -7 | 14 | -0.7 | nt | nt
COc1ccc(C)cc1C(=O)CCC(=O)NCCc1ccc(S(N)(=O)=O)cc1 | -4 | 4 | -5 | 0.0 | 13 | nt
CN(C(=O)c1cccnc1)c1nnc(-c2cnccn2)s1 | 14 | 1 | 2 | 0.3 | 0 | -2
C=Cc1ccc(Cn2nc(-c3ccc(C)cc3)ccc2=O)cc1 | 7 | 12 | -5&11 | -0.7&1.6 | -18 | 11
CCN(CC)S(=O)(=O)c1cc(NC(=O)CSc2nc3c(cc2C#N)C(=O)CC(C)(C)C3)ccc1C | -6 | 3 | 12 | 2.5 | -3 | 6

Screening data: PubChem BioAssay, National Center for Advancing Translational Sciences (NCATS)
